D2 potentiator: positive allosteric modulators of human D2 dopamine receptor; P14416; DiscoveRx D2 beta-arrestin cells, luminescence, 90 min; 100% = 57 uM dopamine signal; potentiation, % (concentration not given with the values); 360,000 compounds, 0.23% hits; AID 624464; active = potentiation of 50% or more; inconclusive = 30% to 50%; inactive = 30% or less;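 further: tested on top of an EC20 dose of dopamine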
Target sequence (P14416 whole entry, looked up): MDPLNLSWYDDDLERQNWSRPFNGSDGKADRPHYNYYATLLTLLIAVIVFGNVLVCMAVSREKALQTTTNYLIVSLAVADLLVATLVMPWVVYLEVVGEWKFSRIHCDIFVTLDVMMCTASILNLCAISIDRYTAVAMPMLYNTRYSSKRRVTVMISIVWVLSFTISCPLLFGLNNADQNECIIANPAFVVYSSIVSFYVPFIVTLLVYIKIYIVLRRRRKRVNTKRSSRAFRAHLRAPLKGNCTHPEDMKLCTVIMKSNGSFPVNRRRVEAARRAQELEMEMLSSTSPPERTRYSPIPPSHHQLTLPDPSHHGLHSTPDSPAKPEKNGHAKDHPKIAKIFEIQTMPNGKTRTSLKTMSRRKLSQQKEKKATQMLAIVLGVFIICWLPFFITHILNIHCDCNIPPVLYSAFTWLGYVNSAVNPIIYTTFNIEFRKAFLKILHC
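PathHunter beta-arrestin assay in DiscoveRx D2 cells. Compounds were added with an EC20 of dopamine (50 nM final) for 90 min at 37 deg C. Luminescence was read 1 h after detection reagent, with 57 uM dopamine as the EC100 control.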
TRPML1 inh: inhibitors of human TRPML1 channel; TRPML1-inducible cells, Ca2+ dye fluorescence, FDSS; stronger effect = lower value; inhibition of EC80 agonist-evoked calcium signal; activity change, negative = inhibition, % (concentration not given with the values); 390,000 compounds, 0.02% hits; AID 624415; in the data active means activity change below about -50%; inconclusive means about -30% to -50%; inactive means above about -30%;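 further: stimulus is agonist 54-4 at its EC80 concentration; on the % scale 0 is the no-effect control and ±100 the full control effect; the text of the record puts the active cut at -80%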
Target sequence (Q9GZU1 whole entry, looked up): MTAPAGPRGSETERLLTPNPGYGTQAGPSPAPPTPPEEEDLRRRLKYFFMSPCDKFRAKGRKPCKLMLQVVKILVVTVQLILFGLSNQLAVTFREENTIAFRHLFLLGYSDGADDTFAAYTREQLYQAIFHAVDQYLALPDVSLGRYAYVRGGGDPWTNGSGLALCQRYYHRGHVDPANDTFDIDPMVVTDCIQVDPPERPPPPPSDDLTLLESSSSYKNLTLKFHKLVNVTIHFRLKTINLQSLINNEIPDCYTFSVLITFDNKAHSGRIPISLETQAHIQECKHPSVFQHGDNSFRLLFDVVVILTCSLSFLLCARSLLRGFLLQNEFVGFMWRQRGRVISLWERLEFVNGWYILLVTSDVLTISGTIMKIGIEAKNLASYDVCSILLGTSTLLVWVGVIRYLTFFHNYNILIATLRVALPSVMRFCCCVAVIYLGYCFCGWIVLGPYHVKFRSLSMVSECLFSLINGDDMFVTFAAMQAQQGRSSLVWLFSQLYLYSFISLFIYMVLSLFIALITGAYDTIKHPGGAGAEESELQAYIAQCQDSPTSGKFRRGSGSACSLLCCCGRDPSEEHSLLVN
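Tet-induced TRPML1-DL cells loaded with Ca8 no-wash calcium dye were read kinetically on FDSS. Compound addition was followed by EC80 agonist 54-4 (4 uM final); inhibition was read over 110 s.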
PINK1 modulator: modulators of PINK1 expression; PINK1 immunofluorescence, high-content cytometry, 24 h; Potency, µM (highest dose often 76.6 µM), for inactives: at the top dose activation (PINK1 increase), most hits filed as activators; 410,000 compounds, 0.2% hits; AID 624263; active = well fitted activation curve with a large enough effect; inconclusive = small, poorly fitted or top-dose-only effect; inactive = flat fitted curve, though single readings scatter; cell line not stated here;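 further: potency means the concentration at half of the fitted maximal effect; % of control where 0% means no effect; nearly all actives have a fitted effect of over 65% in size; a mitochondrial uncoupler was the plate control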
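Decision-based qHTS: stable cells, 24 h exposure to five compound concentrations, CCCP as control. Fixed cells stained for PINK1 plus nuclear, mitochondrial and cell markers, cytometer read.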
Six1-Eya2 inh: blocks human Six1 binding to Eya2; 360,000 compounds, 0.56% hits; activity change, % (no concentration beside the values); AlphaScreen GST-Six1/His-Eya2 binding, biochemical; stronger effect = lower value; control for the full effect not named in the record; in the data active = activity change below about -65%; inconclusive = about -30% to -65%; inactive = above about -30%; further: on the % scale 0 is the no-effect control and ±100 the full control effect
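Homogeneous AlphaScreen proximity assay pairing GST-Six1 with His-tagged Eya2 (added as 5X mix: 250 nM and 500 nM) in 50 mM Tris pH 8.0, 300 mM NaCl, 1 mM TCEP. Glutathione donor and nickel acceptor beads; 1 h, 37 °C, dark.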
TRPML1 agonist: activates the human TRPML1 channel | 410,000 compounds, 0.12% hits | TRPML1-expressing cells, Ca2+ dye fluorescence, FDSS; host cell line not named in the record; reference of the full effect not given here | activation, % (no concentration beside the values); in the data active = activation above about 50%; inconclusive = about 30% to 50%; inactive = below about 30%; further: 0% is about no effect; the text of the record puts the active cut at 80%
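Cells: TRPML1-DL, 1X Tet inducer, ~16 h at 37 degrees C/5% CO2. Dye: ABD Ca8 no-wash + quencher, 45-90 min RT. Read: 10 s baseline, compound add, 110 s agonist phase; 54-4 EC80 (4uM final), 110 s antagonist phase.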
D2 agonist: human D2 receptor agonism in beta-arrestin assay; P14416; DiscoveRx PathHunter D2 beta-arrestin, luminescence, 90 min; 100% = 57 uM dopamine signal; activation, % (test concentration not listed); 360,000 compounds, 0.084% hits; AID 624465; in the data active = activation above about 40%; inconclusive = about 15% to 40%; inactive = below about 15%; further: compound concentration not given in the record; the text of the record calls up to 30% inactive
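DiscoveRx PathHunter D2 beta-arrestin cells (2,100/well) attached overnight, then compound-stimulated 90 min at 37 C in HBSS/10 mM HEPES/0.1% Tween-20 buffer; beta-galactosidase complementation read by luminescence after 1 h at ambient temperature. Dopamine 57 uM final (EC100) as control.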
* = called active by the depositor; ? = inconclusive; / = no result given; & = joins results of further samples; [ ] = remark or other dose.

SMILES | D2 potentiator | TRPML1 inh | PINK1 modulator | Six1-Eya2 inh | TRPML1 agonist | D2 agonist
CN1C(=O)NC2(O)C(=O)c3ccccc3C12O (stereo not given) | -2 | 5 | -1.0% | 4 | -0.1 | -0.9
Cc1cccc(NC(=O)C(=O)NCCc2c[nH]c3ccccc23)c1C | 8 | 6 | 0.8% | -8 | 1.2 | -2.0
Cc1ccc(S(=O)(=O)c2nc(S(=O)(=O)c3ccc(C)cc3)c(NC(C)C)s2)cc1 | / | 35 | 0.8% | / | 2.8 | /
O=C(CN1CCN(C(=O)N2CCCCC2)CC1)Nc1ccc(F)cc1 | 14 | 4 | / | 4 | 0.2 | -1.0
O=C(Cn1ccc(C(F)(F)F)n1)N/N=C/c1ccc2c(c1)OCO2 | 5 | 20 | 0.3% | 2 | -0.4 | -0.6
COCC(=O)NCCc1ccc(S(N)(=O)=O)cc1 | -3 | 1 | 3.2%[38.3 µM] | 3 | 0.7 | -2.2
CC(=O)N(CCC1(c2ccc(C)cc2)CCOC(C(C)C)C1)Cc1ccco1 (stereo not given) | 0 | 0 | 3.1% | -1 | -1.4 | -1.5
CCC(Cc1ccccc1)NC(=O)CCc1ccccc1 (stereo not given) | -4 | -11 | 1.4% | 4 | 1.3 | -1.6
c1ccc2c(c1)oc1c(Nc3ccc4c(c3)OCO4)ncnc12 | 8 | 2 | 3.2% | -1 | -0.5 | -1.6
Cc1c(Cl)cccc1NC(=O)c1cc(-c2ccccc2O)n[nH]1 | 7 | 8 | ? | 5 | 0.8 | 3.2
O=C(CSCc1ccc(F)cc1)N1CCc2c([nH]c3ccccc23)C1c1ccccc1 (stereo not given) | / | -10 | -0.4% | / | -0.6 | /
C=CCNC(=O)COc1ccccc1C#N | -10 | -4 | -0.6% | 3 | 0.5 | 0.1
CC[C@]12c3[nH]c4ccc(OC)cc4c3CCN1C(=O)C(CC(=O)NCCCOC)C[C@@H]2C(=O)N1CCN(C(=O)c2ccco2)CC1 (stereo not given in full) | / | -12 | -0.6% | 4 | -0.1 | -3.0
CCOCCOC(=O)c1ccc(NC(=O)C2COc3ccccc3O2)cc1 (stereo not given) | -3 | 0 | 1.5% | -1 | 1.0 | 3.4
CC(=O)c1ccc(OCC(O)CN2CCN(Cc3ccccc3)CC2)cc1 (stereo not given) | -3 | -2 | 8.7% | -7 | -0.1 | -7.4
C=C(C)c1cccc(C(C)(C)NC(=O)NCCCn2ccnc2)c1 | 3 | -9 | / | -2 | 1.0 | 1.2
CCCOc1ccccc1-c1nc(SCCC(=O)O)n[nH]1 | -16 | -13 | -1.6%[38.3 µM] | 4 | 0.1 | -2.8
COCCNC(=O)C(c1ccc(C)o1)N(C(=O)c1snc(C(N)=O)c1N)c1cccc(C)c1 (stereo not given) | -12 | 3 | -0.9%[38.3 µM] | -3 | 0.6 | 0.7
COc1ccc(C(=O)O)cc1S(=O)(=O)NCCCN1CCCC1=O | -2 | -7 | 0.0% | -9 | 0.0 | 1.5
CCOC(=O)N1CCN(C(=O)C(CC)n2nc(C)c3sc4ccccc4c3c2=O)CC1 (stereo not given) | -28 | -7 | -0.7% | -3 | -1.1 | -2.6
CN(C)C=Nc1c(C(=O)c2ccccc2)sc2nccc(N(C)C)c12 | 3 | 0 | 2.3% | 7 | -0.8 | 0.2
Cc1c(NC(=O)c2cccc(NC(=O)COc3cccc(Br)c3)c2)c(=O)n(-c2ccccc2)n1C | 2 | 13 | 0.0% | -3 | 5.0 | 3.6
Cc1nc2ccc(NC(=O)C(F)(F)F)cc2o1 | -10 | 5 | -1.4% | -1 | -1.4 | -1.3
CC(C)Cn1c(=O)c2sccc2n2c(CCCC(=O)N3CCC(N4CCCCC4)CC3)nnc12 | -5 | 5 | 1.0% | -1 | -0.3 | -1.1
Cc1c(C(=O)NCc2ccc3c(c2)OCO3)oc2ccc(S(=O)(=O)N3CCC(C)CC3)cc12 | 18 | 2 | -0.3% | -2 | 1.5 | -0.1
Cc1cccc(C(=O)OC(C)CN2C(C)CCCC2C)c1 (stereo not given) | -3 | 18 | 1.8% | 6 | 0.0 | 0.4
CCc1ccc(CNC(=O)CN(c2ccc(C)cc2)S(=O)(=O)N(C)C)cc1 | / | -1 | 1.1% | / | 0.5 | /
O=C(CN(c1ccccc1F)S(=O)(=O)c1ccccc1)Nc1ccccc1C(=O)N1CCOCC1 | 7 | 38 | 1.4% | 3 | -0.8 | -0.1
O=C(O)c1cccc(NC(=O)c2cc(NC(=O)c3ccccc3)cc(NC(=O)c3ccccc3)c2)c1 | 2 | -1 | 0.8% | -21 | -0.6 | 12
O=S(=O)(NCCC1=CCCCC1)c1ccccc1Br | 7 | -1 | 3.6% | 23 | 1.4 | 2.8
CN(c1cc2c(c3c1ccn3C)C1CCC2O1)C1CCCCC1 (stereo not given) | -16 | / | 13% | ? | -0.6 | -2.7
Cc1nc2ccccc2c(=O)n1/N=C/c1ccccc1O | -4 | 39 | 1.5% | -27 | -0.5 | -7.3
O=C(Cc1ccc(Cl)cc1)Oc1cccc2cccnc12 | -10 | -5 | 1.0% | -91* | -1.3 | -6.1
Cc1ccc(NC(=O)CCS(=O)(=O)c2ccc(Br)s2)c(Br)c1 | / | -1 | 2.3% | / | 1.7 | /
CCOC(=O)CCCc1ccc(/C(C)=N/NC(N)=S)cc1 | -5 | -6 | 0.4% | 0 | 0.1 | 2.8
COc1cc(/C=N/NC(=O)CNC(=O)c2ccc3c(c2)OCCO3)ccc1O | -8 | 20 | -2.3%[38.3 µM] | -3 | 0.1 | 0.0
Cc1cc(NC(=O)C(C)SCC(=O)N(C)CC(=O)Nc2ccccc2C(F)(F)F)no1 (stereo not given) | 6 | 14 | -0.1% | 5 | 0.4 | -1.3
COC(=O)C[C@H]1c2cc(C(F)(F)F)ccc2S(=O)(=O)N1Cc1ccccc1 | -6 | 21 | 0.6% | 1 | 0.4&-0.6 | -0.9
COc1ccc(N2CCN(C(=O)COc3ccccc3C#N)CC2)cc1 | / | 39 | 0.1% | / | -0.7 | /
Cc1ccccc1C(=O)OCC(=O)Nc1cccc(S(=O)(=O)N2CCCCC2)c1 | -12 | -1 | 1.5% | -3 | 1.5 | -0.8
COc1ccc2c(c1)NC(c1cccnc1)=NC(c1ccc(F)cc1)=N2 | / | 5 | 7.3% | / | 1.8 | /
CCOc1ccc(-c2cc3c(=O)n(CC(=O)Nc4c(C)cccc4C)ccn3n2)cc1 | / | 18 | 0.1% | / | 1.4 | /
COc1cccc(/C=N/NC(=O)CCCC(=O)Nc2ccc(Br)cc2)c1 | -3 | -11 | 5.7% | -7 | -0.5 | -2.3
O=C(c1cc(-c2ccco2)nn1-c1cccc(Cl)c1)N1CCCCC1 | -11 | 6 | 5.0% | -15 | 1.4 | -2.4
NCCCC(=O)O | 1 | -3 | 2.6% | 3 | -0.7 | -7.9
O=C1NC2(CCCC2)C(=O)N1CC(=O)N(Cc1ccccc1)c1ccccc1 | 0 | -14 | 0.6% | 9 | -0.2 | -4.8
CC(C)(C)C(=O)N(Cc1ccc(Cl)cc1)Cc1cccnc1 | -21 | 15 | 0.6% | 6 | -0.7 | -4.0
COc1ccc(C(=O)Cn2nnc(-c3cccs3)n2)cc1 | -4 | 0 | -2.6% | 8 | 0.0 | -2.9
COc1cccc(C(=O)N(CN2CCCC2=O)c2ccccc2OC)c1 | -6 | 15 | 0.9% | 3 | 1.4 | 1.0
C=C1C[C@@]23CCC4[C@@](C)(CCC[C@@]4(C)C(=O)O)C2CC[C@]1(O)C3 (stereo not given in full) | -13 | -3 | 1.6% | 7 | -0.2 | -4.9

Gathered by group, the entries above with a cyano group (2)
SMILES | D2 potentiator | TRPML1 inh | PINK1 modulator | Six1-Eya2 inh | TRPML1 agonist | D2 agonist
C=CCNC(=O)COc1ccccc1C#N | -10 | -4 | -0.6% | 3 | 0.5 | 0.1
COc1ccc(N2CCN(C(=O)COc3ccccc3C#N)CC2)cc1 | / | 39 | 0.1% | / | -0.7 | /

As entered above:
For TRPML1 inh, COc1cccc(/C=N/NC(=O)CCCC(=O)Nc2ccc(Br)cc2)c1 shows -11
For Six1-Eya2 inh, Cc1ccccc1C(=O)OCC(=O)Nc1cccc(S(=O)(=O)N2CCCCC2)c1 shows -3
For D2 potentiator, COc1ccc(C(=O)Cn2nnc(-c3cccs3)n2)cc1 shows -4
For PINK1 modulator, C=C1C[C@@]23CCC4[C@@](C)(CCC[C@@]4(C)C(=O)O)C2CC[C@]1(O)C3 (stereo not given in full) shows 1.6%
For TRPML1 agonist, O=C(Cc1ccc(Cl)cc1)Oc1cccc2cccnc12 shows -1.3

Later entries:
SMILES | D2 potentiator | TRPML1 inh | PINK1 modulator | Six1-Eya2 inh | TRPML1 agonist | D2 agonist
COC(=O)c1ccc(OCC(O)CNCC(c2ccc(OC)cc2)N(C)C)c(OC)c1 (stereo not given) | -5 | -8 | -1.8% | 5 | -0.1 | 0.5
COc1c2ccoc2nc2c(OC)cccc12 | -4 | 3 | -1.3%[38.3 µM] | -6 | -0.6 | 0.1
Cc1onc(-c2ccccc2)c1C(=O)NCC1COc2ccccc2O1 (stereo not given) | 11 | 4 | -1.8% | 0 | -0.2 | -1.2
CCCCC(=O)Nc1nnc(CCOC)s1 | -6 | 4 | -0.1% | 6 | 0.2 | -3.2
CCn1c(CNC(=O)Cc2ccc(OC)cc2)nnc1SCC(=O)Nc1nccs1 | -9 | -15 | -0.3%[38.3 µM] | -8 | -0.3 | 1.6
CC(C)C(C(=O)Nc1ccccc1)N1C(=O)c2ccccc2C1=O (stereo not given) | -2 | -6 | 0.9% | 2 | 0.5 | -5.9
CCOc1cccc2sc(N(CCCN(C)C)C(=O)c3ccc(C(=O)c4ccccc4)cc3)nc12 | -33 | 47 | 9.1% | -18 | 0.0 | 7.3
CCN(CC)c1ccc(NC(=O)CSc2nc(C)cc(=O)[nH]2)cc1 | -2 | 6 | 3.6% | 9 | -0.6 | 4.5
CCOc1ccc(N2CC(C(=O)NCCc3ccc(S(N)(=O)=O)cc3)CC2=O)cc1 (stereo not given) | -6 | 1 | -1.5% | 0 | 0.1 | -1.8
Cc1nc2ncnn2c(C)c1CCC(=O)N1CCOCC1 | -3 | 5 | ? | -3 | -0.7 | -3.6
CC(=C/c1ccccc1)/C=N/NC(=O)c1cccs1 | -17 | -8 | -0.1% | -4 | 2.0 | 0.7
COc1cccc(C=Nc2ccc3c(c2)OCCO3)c1O | -15 | 1 | 1.0% | 16 | 0.7 | -6.2
COc1ccc(NC(=O)c2ccc3ncsc3c2)cc1 | -21 | -14 | 2.1% | 0 | 0.7 | 0.6
CCN(CC)C(=O)C1=C(C)NC(=O)NC1c1c(F)cccc1Cl (stereo not given) | -7 | 13 | 1.7% | 2 | 1.2 | 2.9
CCc1cccc(NC(=O)CN(c2ccc(OC)cc2)S(=O)(=O)c2c(C)n[nH]c2C)c1 | -28 | 22 | / | -2 | 0.8 | 1.5
O=C(/C=C/c1ccco1)Nc1cccc(S(=O)(=O)N2CCOCC2)c1 | -16 | -15 | -0.4% | -23 | 1.0 | -1.1
O=C(Cn1nc(-c2cccc(Cl)c2)ccc1=O)Nc1ccccc1Br | 1 | 2 | -1.9% | 0 | 2.7 | -1.3
CCCCC(=O)Nc1ccc(C(=O)OCc2cc(=O)n3nc(C4CC4)sc3n2)cc1 | / | 12 | -1.1% | / | 1.1 | /

Compound activity: PubChem, National Center for Advancing Translational Sciences (NCATS)
